Bioassay records (PubChem BioAssay)
Rango complex inh – qHTS Assay for Inhibitors of Rango (Ran-regulated importin-beta cargo) - Importin beta complex formation; Rango CFP/YFP FRET sensor + importin beta, 45 min; Potency, µM (series often up to 92.2 µM), without a hit: top-dose inhibition of complex formation; 340,000 compounds, 0.031% hits; active = rising FRET ratio curve, often small or poorly fitted; inconclusive = mostly compound fluorescence or quenching in the first reads; inactive = flat curves in all reads;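 also: potency is read from the fitted curve at half-maximal effect; 0% = DMSO wells and 100% = buffer wells lacking importin beta; nearly all actives have a fitted effect of over 15% in size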
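FRET biosensor Rango (snurportin 1 IBB between N-terminal EYFP and C-terminal Cerulean), 50 nM in PBS/1 mM DTT/0.02% Tween-20/0.1% BSA, preincubated 5 min RT with compound; 0.125 microM importin beta added, 45 min RT, CFP/YFP FRET ratio read.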
Rango release inh – qHTS Assay for Inhibitors of RanGTP induced Rango (Ran-regulated importin-beta cargo) - Importin beta complex dissociation; Biochemical FRET Rango-importin beta, RanGTP-induced dissociation; 340,000 compounds, 0.071% hits; Snurportin-1 (Homo sapiens) + GTP-binding nuclear protein Ran (Homo sapiens) + Importin …; Potency, µM (top dose mostly 46.1 µM), for inactives: at the highest dose activity change, negative = inhibition; active means falling FRET ratio curve, often poorly fitted, with flat reads before Ran was added; inconclusive means other falling curves, or compound fluorescence or quenching; inactive means flat or rising ratio curve;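 also: potency is read from the fitted curve at half-maximal effect; % of control where 0% means no effect; nearly all actives have a fitted effect of over 45% in size; -100% = wells without RanGTP and RCC1; the record marks most hits as doubtful in a second field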
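Rango/importin beta premix (0.1/0.25 uM final), PBS + 1 mM DTT + 0.02% Tween-20 + 0.1% BSA; cpd 5 min RT; FRET pre-read; + RanGTP-RCC1 (0.6 uM Ran, 2 mM GTP, 0.2 uM RCC1); 45 min RT; FRET post-read, ex 430, em 486/530 nm.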
GLA inh pH 4.5 – qHTS Assay for Inhibitors of Human alpha-Galactosidase at pH 4.5; Alpha-galactosidase A (Homo sapiens), P06280; purified enzyme, 4-MU-alpha-Gal fluorescence, pH 4.5; activity change, negative = inhibition, % at 105 µM; 230,000 tested, under 10 active; AID 1467, 2008; inconclusive = small, poorly fitted or top-dose-only inhibition, or a rising curve; inactive = flat fitted curve, though single readings scatter; no compound was filed as active;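 also: 0% = full activity with enzyme and -100% = basal without enzyme; dose as in the result columns while the protocol names 77 µM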
Target sequence (P06280 whole entry, looked up): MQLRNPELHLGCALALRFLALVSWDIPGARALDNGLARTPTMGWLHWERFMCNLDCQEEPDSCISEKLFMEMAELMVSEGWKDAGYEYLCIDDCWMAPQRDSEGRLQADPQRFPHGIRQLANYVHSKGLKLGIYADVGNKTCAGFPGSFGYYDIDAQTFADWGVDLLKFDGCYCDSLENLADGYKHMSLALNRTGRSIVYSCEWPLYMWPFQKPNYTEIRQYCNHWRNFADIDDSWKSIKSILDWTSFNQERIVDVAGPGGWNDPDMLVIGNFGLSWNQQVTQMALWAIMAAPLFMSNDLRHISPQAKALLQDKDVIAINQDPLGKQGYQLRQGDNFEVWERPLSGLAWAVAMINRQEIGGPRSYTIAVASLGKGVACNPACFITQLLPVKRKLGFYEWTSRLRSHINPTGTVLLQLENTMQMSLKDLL
miR-21 reporter – qHTS Assay for Modulators of miRNAs and/orActivators of miR-21; 340,000 tested, under 10 active; Potency, µM (doses to about 38.3 µM), for inactives: top-dose reporter change, positive = more light; HeLa miR-21 FLuc reporter, luciferase, 48 h; AID 2288, 2010; active = well fitted rising curve with a large enough effect; inconclusive = small, poorly fitted or top-dose-only effect; inactive = no such curve, though single readings can be large or run the other way;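 also: % of control where 0% means no effect; miR-21 action dims this reporter so a rising signal means less miR-21 action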
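HeLa cells stably expressing CMV-driven firefly luciferase with a downstream miR-21 binding sequence, endogenously expressing miR-21, were treated with titrations (up to about 40uM final) for 48 hours at 37 degree Celsius. Luciferase luminescence was read after lysis.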
Numbers without * were called inactive; ? = inconclusive; · = not tested or not shown.

Rango complex inh	Rango release inh	mol	GLA inh pH 4.5	miR-21 reporter
?	?	CCOC(=O)CSc1nc(C(C)(C)C)cc(C(F)(F)F)c1C#N	6	-2%
-2.4%	0%	CCn1c(SCC(=O)NCc2cccs2)nnc1-c1cccs1	2	-2%
0.1%	-3%	N#Cc1ccccc1S(=O)(=O)N1CCN(C(=O)c2cc(-c3ccccc3)nn2-c2ccccc2)CC1	·	-2%
1.2%	16%	CN(C)/C(=N\S(=O)(=O)c1ccccc1)c1ccc([N+](=O)[O-])cc1	2	-7%
-2.4%	-5%	Cc1c(C(=O)NCCCN2CCOCC2)sc2nc(-c3ccc(F)cc3)cn12	-5	-27%
0.9%	3%	COc1cc(C2C(C(C)=O)=C(C)Nc3ncnn32)ccc1O (stereo not given)	3	-1%
2.1%	0%	O=C(NN=C1CCCCCC1)c1ccc(Br)o1	1	-43%
0.6%	12%	COc1ccc(C(=O)OCC(=O)NCC2CCCO2)cc1[N+](=O)[O-] (stereo not given)	-1	-2%
2.2%	23%	COc1ccc(NC(=O)CSc2nnc(CNc3ccc(F)cc3)o2)c(OC)c1	7	3%
·	·	COc1ccc(NC(=O)COC(=O)c2c(F)cccc2Cl)cc1OC	5	-49%
-4.3%	10%	O=C(NC(Cc1c[nH]c2ccccc12)C(=O)Nc1ccc(F)c([N+](=O)[O-])c1)c1cccs1 (stereo not given)	?	25%
-2.8%	-10%	COc1ccc(C(CNC(=O)c2cccc(NS(=O)(=O)c3ccccc3)c2)N(C)C)cc1 (stereo not given)	·	-14%
0.0%	3%	CC1=Nn2c(nnc2-c2cc(-c3ccccc3)n[nH]2)SC1	4	0%
1.4%	1%	COc1ccc(C)cc1NS(=O)(=O)c1ccc2c(c1)NC(=O)C(C)S2 (stereo not given)	·	15%
-0.1%	-6%	N#Cc1ccc(C(=O)NC(=S)NC2CCCCC2)cc1	·	·
-0.4%	10%	COc1cccc(CNc2ccc(N3CCCCC3)cc2)c1OC	-10	-2%
0.4%	-6%	CC(C)(C)c1ccc(S(=O)(=O)N2CCN(c3ncccn3)CC2)cc1	0	0%
-3.0%	-5%	COC(=O)N/N=C/c1cc(C)n(-c2cccc3ccccc23)c1C	-3	-12%
-0.1%	0%	COc1ccc2nc(C)cc(Nc3cccc(C(=O)O)c3)c2c1	·	0%
-0.7%	38%	O=C(COc1ccc(-c2ccccc2)cc1)NNC(=O)Nc1ccccc1	·	·
10%	-18%	Cn1c(Cn2c(=O)sc3ccccc32)nnc1SCC(=O)NCc1ccco1	0	-3%
6.7%	2%	O=[N+]([O-])c1ccc(Sc2ccccn2)nc1	1	4%
?	?	CC(C)/C=C1\CC/C(=C\c2ccc(N(C)C)cc2)C1=O	-1	-20%
4.1%	-14%	O=C(NC1CCCCC1)C(c1ccncc1)N(C(=O)c1csnn1)c1ccc(F)cc1 (stereo not given)	·	5%
-0.5%	0%	O=C(CSc1nnc(-c2cccc(S(=O)(=O)N3CCCC3)c2)n1-c1ccccc1)Nc1cccc(C(=O)O)c1	8	-1%
2.2%	8%	CCOC(=O)C1CCN(C(=O)COC(=O)Cc2ccc(Cl)cc2)CC1	·	-2%
?	-6%	CCS(=O)(=O)Nc1cccc(C2=NN(S(C)(=O)=O)C(c3ccccc3)C2)c1 (stereo not given)	4	0%
-0.7%	0%	CCN(CC)S(=O)(=O)c1ccc(Br)c(OC)c1	4	-23%
-1.6%	3%	COc1cc(C(=O)N2CCN(c3cc(Cl)ccc3Cl)CC2)cc(OC)c1OC	-28	15%
-3.0%	5%	O=C(CSc1nnc(-c2ccncc2)n1-c1ccccc1)NC1CC1	·	1%
-1.1%	-6%	Cc1cccc(NC(=O)c2nc[nH]c2C(=O)N[C@@H](C)c2ccccc2)c1	·	·
-1.7%	12%	O=C(Oc1c(CN2CCOCC2)cc(Cl)c2cccnc12)c1ccc(F)cc1	-5	?
?	?	COc1ccc(CCNC(=O)c2ccc3nc(-c4ccco4)c(-c4ccco4)nc3c2)cc1OC	-4	29%
-5.0%	15%	O=C(NCCCN1CCOCC1)c1ccc(Sc2ccc(F)cc2)c([N+](=O)[O-])c1	-11	-18%
-0.1%	0%	CCCc1cc(N2CCOCC2)n2ncc(-c3ccccc3)c2n1	·	-53%
4.7%	-2%	COc1cc(CCC(=O)OCC(=O)Nc2ccc(C)cc2Cl)cc(OC)c1OC	·	-6%
-0.3%	-5%	Cc1sc(NC(=O)Nc2ccccc2)c(C(N)=O)c1C	1	-43%
-4.6%	-7%	CCc1nnc(NC(=O)CCC(=O)NCCc2ccccc2)s1	·	-2%
0.7%	-1%	COc1cccc2sc(N(CCCN(C)C)C(=O)c3sc4ccccc4c3Cl)nc12	11	-1%
4.4%	9%	COc1ccc(S(=O)(=O)NCc2csc(C)n2)cc1OC	·	-2%

Some of the entries so far, field by field:
COc1ccc(CCNC(=O)c2ccc3nc(-c4ccco4)c(-c4ccco4)nc3c2)cc1OC
- Rango complex inh: ?
- Rango release inh: ?
- GLA inh pH 4.5: -4
- miR-21 reporter: 29%

O=C(NCCCN1CCOCC1)c1ccc(Sc2ccc(F)cc2)c([N+](=O)[O-])c1
- Rango complex inh: -5.0%
- Rango release inh: 15%
- GLA inh pH 4.5: -11
- miR-21 reporter: -18%

CCCc1cc(N2CCOCC2)n2ncc(-c3ccccc3)c2n1
- Rango complex inh: -0.1%
- Rango release inh: 0%
- GLA inh pH 4.5: ·
- miR-21 reporter: -53%

COc1cc(CCC(=O)OCC(=O)Nc2ccc(C)cc2Cl)cc(OC)c1OC
- Rango complex inh: 4.7%
- Rango release inh: -2%
- GLA inh pH 4.5: ·
- miR-21 reporter: -6%

Remaining list, next part.
Rango complex inh	Rango release inh	mol	GLA inh pH 4.5	miR-21 reporter
0.9%	15%	Cc1ccc(SCc2nc(-c3ccccn3)no2)cc1	-3	-53%
-5.3%	-10%	CC1(C)CC2CC(C)(CN2C(=O)COC(=O)c2cccc(O)c2)C1 (stereo not given)	·	·
-1.7%	-1%	COc1ccc(NC(=O)COC(=O)Cc2coc3cc(OC)ccc23)c(OC)c1	·	·
-1.5%	8%	Cc1cc(OCC(=O)N2CCN(c3ncccn3)CC2)ccc1Cl	·	-8%
-0.1%	-11%	CCCN(CCC)CCNC(=O)C1(O)c2ccccc2NC(=O)N1c1cccc(OC)c1 (stereo not given)	·	-2%
?	-22%	CCNc1nc(-c2cc(C)n(Cc3ccco3)c2C)cs1	3	0%
-0.2%	1%	COc1cc(NC(=O)c2cccc([N+](=O)[O-])c2)ccc1NC(=O)c1ccco1	-3	-2%
0.5%	-13%	O=C(Nc1ccc(N2CCN(C(=O)c3ccc(Cl)cc3)CC2)cc1)c1ccc([N+](=O)[O-])o1	6	-5%
0.8%	1%	COc1ccc(-c2[nH]c3ccccc3c2SCCNC(=O)c2cc3ccccc3oc2=O)cc1	-2	-2%
7.7%	3%	O=C(Nc1nnc(-c2ccc3c(c2)CCCC3)o1)c1ccccc1	-4	1%
-0.6%	-7%	Cc1ccc(C2/C(=C(/O)c3ccc(OC(C)C)cc3)C(=O)C(=O)N2CCN2CCOCC2)cc1 (stereo not given)	-3	-1%
0.7%	?	COc1ccccc1NC1=C(Cl)C(=O)N(C2CCCCC2)C1=O	-5	-7%
1.8%	20%	COc1ccc(S(=O)(=O)Nc2cccnc2)cc1OC	·	1%
-1.6%	-15%	CC(O)c1c(OCc2ccccc2)ncnc1OCc1ccccc1 (stereo not given)	-12	-7%
-1.5%	-1%	COc1ccccc1N(CC(=O)NCc1ccccc1)C(=O)CCC(=O)Nc1nccs1	·	0%
0.2%	-14%	CN(C)C(CNC(=O)C1CCN(S(=O)(=O)c2ccc(Cl)cc2)CC1)c1ccccc1 (stereo not given)	·	-7%
4.9%	17%	COc1ccc(S(=O)(=O)Nc2cccc3c2O[C@@H](CN(C)Cc2ccc(C(=O)O)cc2)[C@@H](C)CN([C@H](C)CO)C3=O)cc1	·	·
8.2%	-1%	CCN(CC)C(=O)CSc1nc(N)c2c3c(sc2n1)CC(C)CC3 (stereo not given)	1	-20%
-0.7%	-16%	O=C(NNc1ncccc1Cl)c1c(Cl)cccc1Cl	7	0%
-1.6%	0%	Cc1ccc(S(=O)(=O)N(CCC(=O)NCC(c2ccccc2)N(C)C)c2ccccc2)cc1 (stereo not given)	·	·
4.6%	-10%	CCc1ccc(CN(C)C(=O)CCc2nnc(Cc3cccc(C)c3)o2)nc1	-1	0%
-0.7%	-12%	Cc1ccc(OCC(=O)NCc2ccc3c(c2)OCO3)c([N+](=O)[O-])n1	-23	-24%
1.7%	-2%	O=c1[nH]cc(S(=O)(=O)NCc2ccccc2)c(=O)[nH]1	·	-1%
0.4%	9%	CCC1CCCCN1CCCNC(=O)C1CCCN(S(=O)(=O)N2CC(C)CC(C)C2)C1 (stereo not given)	·	-5%
?	-4%	CC(=O)c1cccc(NC(=O)c2cnn(-c3ccccc3)c2C)c1	·	-20%
-4.2%	2%	CCOc1ccc(N2CC(O)(c3cccs3)[N+]3=C2CCCC3)cc1 (stereo not given)	7	-1%
-3.0%	-1%	COc1cc(OC)cc(C(=O)N[C@H](C(=O)NNC(=O)c2ccc(Br)cc2)C(C)C)c1	·	·
0.2%	1%	CC1(c2nnc(-c3cccc(Cl)c3)o2)CC(c2c(Cl)cccc2Cl)=NO1 (stereo not given)	·	·
-0.7%	-9%	COc1ccccc1C(=O)NNC(=O)c1ccc(Br)cc1	·	-24%
-3.7%	1%	O=CNCc1nc2ccccc2n1CCc1ccccc1	·	3%
-0.5%	8%	Cc1c(NC(=O)CN2C(=O)NC(C)(c3ccc4c(c3)OCCO4)C2=O)c(=O)n(-c2ccccc2)n1C (stereo not given)	-5	-1%
-1.9%	1%	CC(=O)N1c2c(cc(Br)cc2S(=O)(=O)NCc2ccccc2)CC1C (stereo not given)	·	-1%
-1.1%	-9%	COCCCNC(=O)/C=C/c1c(Cl)cccc1Cl	-3	-29%
1.5%	-10%	Cc1nn(-c2ccccc2)c(N)c1-c1ccccc1	3	-64%
4.4%	21%	O=C(OCC(=O)N1CCCc2ccccc21)c1cccnc1Cl	-2	-7%
-3.7%	23%	Cc1cc(C(=O)NNC(=O)CCCCC(=O)NNC(=O)c2cc(C)[nH]n2)n[nH]1	3	2%
7.7%	-6%	NC(=O)CC(NC(=O)Cc1cccc2ccccc12)c1ccc(NC2CC3CCC2C3)c([N+](=O)[O-])c1 (stereo not given)	·	-7%
-1.2%	1%	Cc1ccc(-c2cc(C(F)F)n3ncc(C(=O)N4CCc5ccccc54)c3n2)cc1	6	16%
0.5%	12%	CC(C)(COC(=O)Nc1ccccc1)COC(=O)Nc1ccccc1	·	5%
-0.5%	2%	COc1ccc(C(=O)OCC(=O)NCc2ccc3c(c2)OCO3)cc1S(=O)(=O)N1CCOCC1	·	·
-0.6%	-5%	Cc1ccc(S(=O)(=O)N2CCN(C(=O)COC(=O)c3cccc(Cl)c3)CC2)c(C)c1	·	·
2.0%	4%	Cc1cccc(Cn2c(O)c(N=NC(=S)Nc3ccccc3F)c3ccccc32)c1	-12	-1%
0.1%	-4%	Cc1ccc(C(=O)NN2C(=O)C3C4C=CC(C4)[C@@H]3C2=O)cc1 (stereo not given in full)	6	-7%
1.2%	7%	COc1ccc(-c2nc(-c3ccccc3)nc(Cl)c2C#N)cc1	10	2%

This is a subset. The share of hits here may be higher or lower than overall.
